VDR inhibitor = vitamin D3 receptor (human) inhibition | VDR-SRC2-3 peptide fluorescence polarization, 2 h | 400,000 tested, 0.93% active | AID 504847 | Potency, µM, without a hit: max response, negative = inhibition, hits mostly inhibitors | P11473; active = well fitted inhibition curve with a large enough effect; inconclusive = small, poorly fitted or top-dose-only effect, or another doubt; inactive = no such curve, though single readings can be large or run the other way; also: series mostly up to about 120 µM
Target sequence (P11473 whole entry, looked up): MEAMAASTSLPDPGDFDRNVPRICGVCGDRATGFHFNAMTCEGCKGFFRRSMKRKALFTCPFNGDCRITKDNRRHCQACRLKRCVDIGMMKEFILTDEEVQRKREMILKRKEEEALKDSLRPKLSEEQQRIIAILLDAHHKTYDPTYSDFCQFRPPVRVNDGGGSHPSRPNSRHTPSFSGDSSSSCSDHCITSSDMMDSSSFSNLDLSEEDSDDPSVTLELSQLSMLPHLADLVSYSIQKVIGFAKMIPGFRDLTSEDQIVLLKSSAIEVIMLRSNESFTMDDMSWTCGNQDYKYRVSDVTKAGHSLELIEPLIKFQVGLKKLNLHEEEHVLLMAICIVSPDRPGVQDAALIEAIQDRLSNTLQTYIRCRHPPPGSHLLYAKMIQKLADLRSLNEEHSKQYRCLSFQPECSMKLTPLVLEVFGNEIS
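Inhibition of the VDR/SRC2-3 peptide interaction is quantified by fluorescence polarization. Compounds (23 nl, pintool) incubate with the reagents for 2 hours at ambient room temperature.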
An asterisk follows results filed as active; ? = inconclusive; & = joins results of further samples. % is scaled to controls: 0 for no effect and ±100 for the full control effect; potency is read from the fitted curve at half-maximal effect. This is a subset. The share of hits here may be higher or lower than overall.

VDR inhibitor | Structure
-14% | O=C1CCCc2c1cc(C(=O)NCc1ccco1)c(=O)n2-c1ccc(Cl)cc1
9% | CCCCn1c(SCc2cccnc2)nc2c1c(=O)n(C)c(=O)n2C
17% | CCOC(=O)c1ccc2c(c1)[C@@H]1C=CC[C@@H]1[C@H](c1cccc(OC)c1OC)N2
-27% | COc1cccc(C2C(C(=O)Nc3ccc(C)cc3C)=C(C)Nc3nc4ccccc4n32)c1OC (centres undefined)
? | OCCN1CCN(CC/C=C2/c3ccccc3Sc3ccc(C(F)(F)F)cc32)CC1
6% | CCCCn1c(=O)[nH]c2nc3cc(NC(C)=O)ccc3nc2c1=O
-9% | COc1cccc(C2Nc3cc(Cl)c(S(N)(=O)=O)cc3S(=O)(=O)N2)c1 (centres undefined)
9% | COc1ccc(N2CCN(C(=O)c3ccc(C(C)(C)C)cc3)CC2)cc1
6% | CCCCOC(=O)C(C)Nc1n[nH]c(=O)[nH]c1=O (centres undefined)
-8% | CC(=O)NC1CCN(CC(=O)Nc2nccs2)CC1
10% | Cc1ccc(S(=O)(=O)NCC(=O)N/N=C/c2ccc(Cl)cc2Cl)cc1
-20% | Cc1ccc(N=Cc2cc3c(cc2O)OC(N)=C(C#N)C3c2ccccc2)cc1 (centres undefined)
5% | COc1ccc(CSc2nnnn2-c2ccccc2)cc1
1% | O=C(CSc1nnc2c(n1)[nH]c1ccc(F)cc12)N1CCOCC1
14% | O=C(c1ccsc1)N1CCCC(Nc2cccc(F)c2)C1 (centres undefined)
-21% | CC(C)(C)c1ccc(-c2nc(C=O)c3ccccn23)cc1
1% | Cc1nc(C(=O)NNC(=O)c2ccc(Cl)cc2)c(C(F)(F)F)o1
-2% | CC12CCC(c3c(C(=O)Nc4nccs4)nn(-c4ccccc4)c31)C2(C)C (centres undefined)
-19% | Cc1ccc(C)c(NC(=O)/C(C#N)=C/c2cn(CC(=O)NCc3ccco3)c3ccccc23)c1
7% | O=C(COC(=O)c1ccc(Cl)nc1)NCCc1ccccc1
79µM* | NC(=O)SCC(=O)Nc1ccccc1C(=O)O
15% | Cc1cc(C)nc(NCCO)n1
-6% | Nc1ccc2nc(SCC(=O)N3CCOCC3)sc2c1
-7% | COCCn1nnnc1C(c1ccc(OC)cc1)N1CCN(C(=O)c2ccco2)CC1 (centres undefined)
0% | CCC(=O)Nc1ccc(NC(=O)CSc2nnnn2CC)cc1C
9% | Cc1cccc(C)c1Nc1sc(C(=O)c2ccccc2)c(N)c1C(=O)Nc1ccc(F)cc1
6% | Cc1cccc(-n2ncc(C(=O)N3CCN(C4CCCCC4)CC3)c2C2CCN(C(=O)OC(C)(C)C)CC2)c1
-15% | COc1ccc(/C=C2\N=C3CCCCCN3C2=O)cc1OC
8% | CC(C)Cc1cc(C(C)(C)C)ccc1OC(=S)N(C)C
0% | Cc1ccc2nc3c(cc2c1)c(NC(=O)c1ccccn1)nn3CC(C)C

Structural class, those above with a CF3 group.
VDR inhibitor | Structure
? | OCCN1CCN(CC/C=C2/c3ccccc3Sc3ccc(C(F)(F)F)cc32)CC1
1% | Cc1nc(C(=O)NNC(=O)c2ccc(Cl)cc2)c(C(F)(F)F)o1

Next section:
VDR inhibitor | Structure
-8% | COc1cccc(N=Nc2ccc3cccnc3c2O)c1
6% | CCOc1ccc(S(=O)(=O)N2CCN(CCNS(=O)(=O)c3ccc(C)cc3)CC2)cc1
-6%&-18%&-2% | COC(=O)[C@@H]1[C@H]2C[C@H]3c4[nH]c5ccccc5c4CCN3C[C@@H]2CC[C@@H]1O
-13% | Cc1cccc(NC(=O)CNC(=O)CNC(=O)Cc2ccccc2)c1
-22% | C/C(=N\NC(=O)C(=O)N/N=C(\C)c1cccc(O)c1)c1cccc(O)c1
-13% | COc1cc(CCC(=O)NC2(C)CCS(=O)(=O)C2)cc(OC)c1OC (centres undefined)
2% | CN1C(C(=O)NCCc2cccs2)CC2Cn3c(nc4ccccc43)C21 (centres undefined)
-9% | O=C(CN(c1ccc(F)cc1)S(=O)(=O)c1ccc2c(c1)OCCO2)NCc1ccccc1
12% | CCNC(=O)OCc1cn(-c2ccc(Cl)cc2)nn1
-1% | O=C(Nc1ccsc1C(=O)NC1CC1)c1ccccc1
-7% | COc1ccc(OC)c(NC(=O)Cn2c(=O)n(-c3ccc(Cl)cc3)c(=O)c3c(C)c(C)sc32)c1
-7% | COc1ccc(CCNC(=O)C2CCCN(S(=O)(=O)N3CC(C)CC(C)C3)C2)cc1OC (centres undefined)
? | CC(NC(=O)/C(C#N)=C/c1ccc(Cl)c([N+](=O)[O-])c1)c1ccccc1 (centres undefined)
-22% | Cn1nnc2cc(C(=O)Nc3ccc4ccccc4c3)ccc21
7% | CCCCC(=O)Nc1c(C(=O)N2CCN(c3ccccc3F)CC2)oc2ccccc12
-3% | O=C(COC(=O)/C=C/c1ccccc1[N+](=O)[O-])NCC1CCCO1 (centres undefined)
-6% | O=C(NCC(O)c1ccc([N+](=O)[O-])cc1)C1=COCCO1 (centres undefined)
9% | COc1ccc(CNC(=O)COC(=O)[C@H](Cc2c[nH]c3ccccc23)NC(=O)c2cccs2)cc1
3% | COCOc1ccc(-c2oc3c(C/C=C(\C)CCC=C(C)C)ccc(O)c3c(=O)c2OCOC)c(OCOC)c1
1% | O=C(Nc1ccccc1C(=O)O)c1ccc(Br)o1
-6% | O=C(NCCC1=CCCCC1)c1ccc([N+](=O)[O-])cc1
10% | CC(C)CC(=O)N1CCN(Cc2ccccc2Br)CC1
-9% | CCNC(=S)N/N=C/c1ccc(-c2ccccc2)o1
14% | COc1ccc(NC(=O)c2cc3c(=O)n(Cc4cccnc4)ccc3nc2C)c(OC)c1
7% | CCCCc1nc2cc(C(=O)NC3CCOC(C)(C)C3)ccc2o1 (centres undefined)
5% | O=C(N1CCN(c2cccc(Cl)c2)CC1)C1(S(=O)(=O)c2ccc(Cl)cc2)CC1
-15% | CCCn1nc(C(=O)NNC(=O)CSCC(=O)Nc2cc(C)on2)c2ccccc2c1=O
-4% | COc1ccc(-c2ccc(-c3noc(-c4ccccc4OC)n3)c(OC)n2)cc1
-6% | COc1cc(C2SCC(=O)N2CCN2CCCCC2)ccc1O (centres undefined)
-8% | Cc1nc(-c2ccc(S(=O)(=O)Nc3cc(S(=O)(=O)N(C)C)ccc3C)s2)cs1
-10% | COc1ccccc1Nc1nc(N)nc(CN2CC(C)CC(C)C2)n1 (centres undefined)
-4% | COCC(C)NCc1cccc(OC)c1OC (centres undefined)
-8% | CN(CCc1ccccn1)C1CCCN(S(=O)(=O)c2ccccc2)C1 (centres undefined)
6% | Cn1c(=O)oc2cc(S(=O)(=O)NCCC(=O)N3CCc4ccccc4C3)ccc21
-11% | Cc1ccc(C(=O)Nc2ccc(C)c(S(=O)(=O)N(C)C)c2)s1
-1% | O=C(c1ccc(Oc2ccc(C(F)(F)F)cn2)cc1)N1CCN(c2ccccc2)CC1
-1% | CC(=O)NN1C(=O)c2ccccc2NC1c1ccccc1 (centres undefined)
3% | Cc1ccc(-n2ncc(C(=O)N3CCN(c4cc(Cl)ccc4C)CC3)c2C2CCN(C(=O)OC(C)(C)C)CC2)cc1
-18% | Cc1nnc(SCC(=O)NC(=O)NC(C)(C)C)n1N
-17% | Cc1cc(=O)oc(C)c1C(=O)NCCCN1C(C)CCCC1C (centres undefined)
13% | Cc1cccc(NC(=O)/C(C#N)=C/c2ccccc2O)n1
7% | C=CCNC(=O)c1ccccc1NC(=O)c1ccc(Cl)c(S(=O)(=O)Nc2cc(C)ccc2C)c1
9% | CCOc1ccc(Sc2cc(C(=O)NCc3ccc(C)cc3)c3ccccc3n2)cc1
-6% | CC(=O)Nc1ccc(Nc2nc(Cl)nc(Nc3ccc(NC(C)=O)cc3)n2)cc1
-11% | COc1ccc(-c2noc(CN(C)C(=O)Nc3ccccc3)n2)cc1

Sorted by the number under VDR inhibitor (descending): four of the compounds above
VDR inhibitor | Structure
13% | Cc1cccc(NC(=O)/C(C#N)=C/c2ccccc2O)n1
6% | Cn1c(=O)oc2cc(S(=O)(=O)NCCC(=O)N3CCc4ccccc4C3)ccc21
-4% | COCC(C)NCc1cccc(OC)c1OC (centres undefined)
-10% | COc1ccccc1Nc1nc(N)nc(CN2CC(C)CC(C)C2)n1 (centres undefined)

More structures follow:
VDR inhibitor | Structure
-3% | FC(F)c1nnc2c(Cl)cc(C(F)(F)F)cn12
-11% | O=C(O)/C=C/C(=O)Nc1ccccc1SC(F)(F)F
-2% | COc1ccc(/C=C/C(=O)NCCCN2CCCC2)cc1
-2% | COc1c2c(cc3c1C(CC(O)C(C)C)N(C)CC3)OCO2 (centres undefined)
4% | Cc1cc(C)c(S(=O)(=O)NCc2ccc3c(c2)OCO3)cc1C
? | NC(=O)c1c(NC(=O)CN2CCCC2)sc2c1CCCC2
-8% | N#Cc1c(C(F)(F)F)cc(-c2ccc(F)cc2)nc1SCC(=O)Nc1ccccc1
-4% | COc1ccc(N(C(=O)c2snc(C(N)=O)c2N)C(C(=O)NC2CCCC2)c2ccco2)cc1 (centres undefined)
2% | Cc1cccc(N/N=C2/COC(C)(C)CC2=O)c1
-21% | CCCOc1ccc(/C=C/C(=O)Nc2ccc([N+](=O)[O-])cc2C)cc1OC
7% | Cc1ccc(OCC(=O)Nc2ccc(C(=O)OCc3cc(=O)n4c(C)csc4n3)cc2)cc1
-1% | Cc1ccc(NC(=O)Nc2ccc(F)cc2)cc1Cl
12% | CCOC(=O)/C(C(N)=NCCO)=C(/O)c1ccccc1
11% | O=C(NC1CCCC1)c1ccc(CS(=O)Cc2ccccc2Cl)o1 (centres undefined)
-13% | COc1ccc2ccc(O)c(CN3CCN(S(=O)(=O)c4cccc(C(F)(F)F)c4)CC3)c2c1
-4% | CCOC(=O)C1CCN(C(=O)COC(=O)CNS(=O)(=O)c2ccc(SC)c([N+](=O)[O-])c2)CC1
6% | Cc1sc2ncn(CCC(=O)O)c(=O)c2c1C
9% | CC1CN(C(=O)CCNC(=O)c2ccc(Cl)cc2)CC(C)O1 (centres undefined)
-17% | CCc1ccccc1NC(=O)CSc1ncc(S(=O)(=O)c2ccccc2)c(=O)[nH]1
3% | O=C(CNCc1ccc(F)cc1)Nc1ccccc1-c1ccccc1
20µM* | Nc1ccc2c(c1)C(=O)C(=O)c1ccccc1-2
-8% | O=C(C[n+]1ccccc1)N/N=C/c1cccc(Cl)c1Cl
-4% | Cc1ccc(-c2nc(C(=O)NCc3ccc(Cl)cc3)c3n2CCCCC3)cc1
1% | O=C(Nc1cc(Cl)ccc1O)c1cc2nc(-c3ccc4c(c3)OCO4)cc(C(F)(F)F)n2n1
2% | CS(=O)(=O)N(CC(=O)NC1CCCCCC1)Cc1ccccc1
-17% | CC(=O)c1c(C)[nH]c(C(=O)COC(=O)c2c(-c3ccccc3)noc2C)c1C
-2% | COC(=O)[C@@H]1C[C@@]2(O)[C@@H](O)[C@@H](O)[C@@H](O)C[C@H]2N1Cc1cc(OC)cc(OC)c1
6% | COc1ccccc1NS(=O)(=O)c1ccc2c(c1)n(C)c(=O)n2C
-10% | N#CC1(C#N)C(C(=O)C23CC4CC(CC(C4)C2)C3)C12CCOCC2 (centres undefined)
3% | Cc1cc(NC(=O)c2ccccc2)ncc1NC(=O)c1ccco1
-4% | Cc1ccc(S(=O)(=O)N2c3ccccc3-c3c(ssc3=S)C2(C)C)cc1
-4% | CC1CCN(C2(O)C(=O)Nc3ccc(Br)cc32)CC1 (centres undefined)
7% | CCOc1cc(N2CCOCC2)c(OCC)cc1NC(=O)c1[nH]c(C)c(C(C)=O)c1C
6% | CC(=O)Nc1cc(C(=O)N2CCN(C)CC2)ccc1Sc1ccc(C)cc1
-2% | Cc1ccc(NC(=O)c2ccc3c(=O)n4c(nc3c2)CCC4)cc1S(=O)(=O)N(C)C
? | COc1ccc(CC(=O)NCC2CCCN(Cc3cccc(C(F)(F)F)c3)C2)cc1 (centres undefined)
-3% | CCc1ccc2oc(-c3ccc(OC)cc3)cc(=Nc3c(C)n(C)n(-c4ccccc4)c3=O)c2c1
-8% | O=C(NCCOc1ccccc1F)c1cc([N+](=O)[O-])ccc1N1CCOCC1
14% | CCCn1c(=N)c(C(=O)NC2CCCC2)cc2c(=O)n3cc(C)ccc3nc21
13% | Cc1c(Cl)cccc1-c1ccc(/C=N/n2cnnc2)o1
-8% | CN1CCCN(C(=O)CNC(=O)c2ccc(Cl)cc2Cl)CC1
-18% | CCOC(=O)C1CCN(C(=O)CN2C(=O)c3cccnc3Oc3ccccc32)CC1
-1% | Cn1c(=O)c2c(nc(Oc3ccc4c(c3)OCO4)n2Cc2ccc(Br)cc2)n(C)c1=O
6% | CCC1Oc2ccccc2N(CC(=O)NC2CCCCC2C)C1=O (centres undefined)
-2% | Cc1ccc(-c2noc(/C=C/c3ccccc3)n2)cc1
1% | Cc1nc2cc(Nc3nnc(-c4ccccc4)c4ccccc34)ccc2n1C
-5% | CCOc1ccc(N(CC(=O)NCc2ccc(F)cc2)C(=O)c2ccco2)cc1
11% | Cc1ccc(S(=O)(=O)n2ccc(-c3ccc(OCc4c(F)cccc4Cl)cc3)n2)cc1
-4% | CCCCN(CC)C(=O)Cn1nc(Cc2ccncc2)c2ccccc2c1=O
1% | CSc1nnc(-c2sc3cc(C(F)(F)F)cnc3c2-c2cccnc2)n1C

Retrieved by compound from the list above, 4 records:
VDR inhibitor | Structure
-8% | CN(CCc1ccccn1)C1CCCN(S(=O)(=O)c2ccccc2)C1 (centres undefined)
-8% | Cc1nc(-c2ccc(S(=O)(=O)Nc3cc(S(=O)(=O)N(C)C)ccc3C)s2)cs1
-11% | O=C(O)/C=C/C(=O)Nc1ccccc1SC(F)(F)F
7% | CCOc1cc(N2CCOCC2)c(OCC)cc1NC(=O)c1[nH]c(C)c(C(C)=O)c1C

Screens (PubChem BioAssay)
